# Compound activity from PubChem.
# Mtb MbtI inh: MbtI salicylate synthase inhibitors, primary screen, biochemical, fluorescence intensity; P9WFX0; purified MbtI enzyme, fluorescence intensity read-out; inhibition, %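 (about 17 µg/mL by stock and volumes)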; actives 0.89% (n = 100,000);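 active means above 50% in both replicates, above 80% if mildly self-fluorescent; inactive means the rest, strongly fluorescent compounds included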;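 further: 0% = mean of negative and 100% = mean of positive controls; one replicate is shown; some compounds called inactive have numbers as strong as hits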
# Target sequence (P9WFX0 whole entry, looked up): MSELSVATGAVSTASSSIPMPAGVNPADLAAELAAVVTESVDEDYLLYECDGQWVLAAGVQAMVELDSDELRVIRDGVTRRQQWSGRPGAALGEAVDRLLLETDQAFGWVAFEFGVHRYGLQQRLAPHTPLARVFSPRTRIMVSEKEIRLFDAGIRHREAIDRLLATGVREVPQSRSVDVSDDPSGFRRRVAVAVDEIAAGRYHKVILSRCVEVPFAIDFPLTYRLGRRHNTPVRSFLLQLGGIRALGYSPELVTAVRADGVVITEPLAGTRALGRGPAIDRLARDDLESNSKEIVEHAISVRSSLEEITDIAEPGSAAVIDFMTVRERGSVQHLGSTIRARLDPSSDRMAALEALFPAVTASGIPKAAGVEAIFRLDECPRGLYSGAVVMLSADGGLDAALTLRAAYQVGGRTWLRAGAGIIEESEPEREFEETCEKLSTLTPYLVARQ
# Mtb MenB inh: M. tuberculosis MenB inhibitors, primary screen, biochemical, absorbance; inhibition, %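 (about 12 µg/mL by stock and volumes)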; MenB enzyme assay, absorbance read-out; some hits fall short of the stated cut; 1,4-dihydroxy-2-naphthoyl-CoA synthase (Mycobacterium tuberculosis (strain ATCC 25618 / …; actives 0.43% (n = 100,000);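 active means mean of two replicates above 30%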;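 further: 0% = no compound and 100% = wells with inactive enzyme; the first replicate is given; strong numbers were not always called active; inactives centre near -10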
# PV pol inh: poliovirus RdRp elongation inhibitors, primary screen, biochemical, fluorescence polarization, total intensity; % elongation, % (compound at 16.7 µg/mL); poliovirus polymerase elongation; hits give low values; actives 0.66% (n = 150,000); Genome polyprotein (Poliovirus type 1 (strain Mahoney)), P03300; in the data active means % elongation below about 90%; further: some results filed as inactive read as strong as hits
# Target sequence (P03300 1749-2209 limits assumed): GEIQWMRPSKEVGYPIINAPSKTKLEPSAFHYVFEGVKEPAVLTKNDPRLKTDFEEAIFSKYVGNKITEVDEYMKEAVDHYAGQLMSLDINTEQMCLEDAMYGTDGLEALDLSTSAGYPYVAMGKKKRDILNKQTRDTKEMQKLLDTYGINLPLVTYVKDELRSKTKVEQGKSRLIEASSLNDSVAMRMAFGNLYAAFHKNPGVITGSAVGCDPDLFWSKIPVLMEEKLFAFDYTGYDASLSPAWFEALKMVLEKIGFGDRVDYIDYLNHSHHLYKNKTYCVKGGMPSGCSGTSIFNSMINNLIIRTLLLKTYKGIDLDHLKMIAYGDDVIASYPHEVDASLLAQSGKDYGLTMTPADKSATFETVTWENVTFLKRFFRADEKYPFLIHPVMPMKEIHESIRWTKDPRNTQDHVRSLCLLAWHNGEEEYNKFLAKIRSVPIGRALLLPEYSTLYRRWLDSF
# PV pol inh intensity: also measured in PV pol inh; calls as there; % elongation; measured here: total intensity read-out; formula for this scale not given here;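 total fluorescence in place of polarization; lower means less elongation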
# * marks the source's active call; other numbers are inactive results; . = no result given; & = joins results of further samples.
1	CCN(Cc1ccccc1)C(=O)c1cccc(C#N)c1
2	Cc1c(Cl)c(O)c(Cl)c(C)c1N(S(=O)(=O)c1ccccc1)S(=O)(=O)c1ccccc1
3	COc1cccc(NC(=O)CCSc2nnc3ccc4ccccc4n23)c1
4	COC(=O)C1=C(Nc2ccccc2NS(=O)(=O)c2cn(C)cn2)CSC1
5	COc1cc(/C=N/NC(=O)c2cc(-c3cccn3C)n[nH]2)cc(OC)c1OC
6	CCOc1ccc(-c2nc(COC(=O)c3cccc(-n4cnnn4)c3)cs2)cc1OC
7	Nc1ncnc(N2CCc3ccccc32)n1
8	N#CC1C(c2ccccc2F)C(C(N)=O)C(=O)NC1(O)c1ccccc1 (configuration not stated)

Screen / compound no.	1	2	3	4	5	6	7	8
Mtb MbtI inh	-2	4	54	2	2	-63	-6	-16
Mtb MenB inh	-6	-10	-9	-6	-9	-37	-10	-6
PV pol inh	103	104	100	100	102	105	101	101
PV pol inh intensity	101	107	101	98	104	106	102	101

9	Cc1ccc(C)c(OC(=O)CCN2C(=O)C3CC=CCC3C2=O)c1C (configuration not stated)
10	O=C(c1cnn(C(=O)C2CC2)c1)c1cc(Cl)ccc1O
11	CN(Cc1ccccc1)C(=O)c1cc2c(s1)-c1ccccc1OC2
12	CC(/C=N/N=C1\SC(CC(=O)Nc2ccc(Cl)cc2)C(=O)N1Cc1ccco1)=C\c1ccccc1 (configuration not stated)
13	O=C(Nc1n[nH]c(C(F)(F)F)n1)c1ccco1
14	O=C(COc1ccc(Oc2ccccc2)cc1)N1CCN(Cc2ccccc2)CC1
15	O=C(CN1C(=O)c2cccc3cccc1c23)N/N=C/c1ccncc1
16	CC1C=CCC2C(=O)N(c3cccc(C(=O)O)c3)C(=O)C12 (configuration not stated)

Screen / compound no.	9	10	11	12	13	14	15	16
Mtb MbtI inh	-10	-6	32	-3	-1&-1	-4	5	1
Mtb MenB inh	-27	.	-11	-9	-2	.	-14	3
PV pol inh	106	98	101	100	102&104	101	100	99
PV pol inh intensity	109	96	103	106	106&105	103	111	100

17	CCn1c(=O)cc(SCC(=O)NCCN2CCN(Cc3ccccc3)CC2)c2ccccc21
18	Cc1ccc(C(=O)Cn2c(=N)sc3cc(C)ccc32)cc1
19	Cc1noc(C)c1COC(=O)c1cccc(S(=O)(=O)N(C)C2CCCCC2)c1
20	Cn1c(SCC(=O)NCc2ccc(Cl)cc2)nnc1-c1ccc(Cl)cc1
21	COc1ccc(N2CCN(C(=O)c3csc4c3CCCCC4)CC2)cc1
22	Cc1occc1C(=O)Nc1cccc(-c2nn[nH]n2)c1
23	COc1cccc(-c2cc(C(=O)NC3CCCC3)on2)c1
24	O=C(O)CC1SC(N2CCCC2)=NC1=O (configuration not stated)

Screen / compound no.	17	18	19	20	21	22	23	24
Mtb MbtI inh	15	-1	-6	-7	-3	0	-22	1
Mtb MenB inh	5	-13	-30	.	5	-59	-20	9
PV pol inh	102	100	105	102	102	106	107	101
PV pol inh intensity	99	101	105	106	103	101	102	102

25	CCOC(=O)c1cc(-c2ccc(S(=O)(=O)N(C)CC3COc4ccccc4O3)s2)on1 (configuration not stated)
26	O=C(CN1C(=O)/C(=C\c2ccccc2)Oc2ccccc21)NC1CCCCC1
27	Cc1nc(CC(=O)N2CCN(C/C=C/c3ccccc3)CC2)cs1
28	O=C(O)C1CCCN(S(=O)(=O)c2ccc(-c3ccc(=O)[nH]n3)s2)C1 (configuration not stated)
29	COCCN1CSC(=S)N(Cc2ccco2)C1
30	O=C(Cn1cc(C(F)(F)F)cc(Cl)c1=O)NC1CC1
31	Nc1cc(C(F)(F)F)ccc1Oc1ccc(Br)cc1
32	CCOC(=O)N1CCC2(CC1)C(C#N)=C(C)Nc1oc(C)nc12

Screen / compound no.	25	26	27	28	29	30	31	32
Mtb MbtI inh	-11	-40	-4	0	46	-13	-10	.
Mtb MenB inh	-24	1	-12	-23	-71	-11	.	-2
PV pol inh	100	101	106	101	102	106	103	105
PV pol inh intensity	103	104	107	103	100	123	108	112

33	CC(/C=C1\SC(=S)N(CCC(=O)N2CCN(C)CC2)C1=O)=C\c1ccccc1
34	Cn1c(SCc2nc3sc4c(c3c(=O)[nH]2)CCCC4)nnc1C(F)(F)F
35	CN1C(=S)Cc2cc(Br)ccc21
36	CCCCn1c(SCC)nc2cc(S(N)(=O)=O)ccc21
37	O=C(C1COc2ccccc2O1)N(CC1CCCO1)c1nc2ccccc2s1 (configuration not stated)
38	Brc1ccc2c(c1)OCCOCCOCCO2
39	CN(C(=O)c1snc2ccc(Cl)cc12)c1ccccc1
40	O=C(N=C1N=C2C=CC=CN2Cc2ccccc21)c1ccncc1

Screen / compound no.	33	34	35	36	37	38	39	40
Mtb MbtI inh	8	8	-35	8	-9	-2	-2	14
Mtb MenB inh	1	-17	-2	-4	11	15	.	-24
PV pol inh	103	.	92	90	106	107	102	96
PV pol inh intensity	104	.	94	90	117	112	97	98

41	CCn1c(-c2ccc3c(c2)OCCO3)cnc1SCc1nc(-c2ccccc2)no1
42	CC(NS(=O)(=O)/C=C/c1ccccc1)C(=O)O (configuration not stated)
43	COc1ccc(CNc2ccc(C)c(C)c2)cc1OC
44	CC1CCN(C(=O)CCCOc2ccc(Cl)cc2)CC1
45	c1ccc(Nc2nc3c(ccc4ccccc43)s2)cc1
46	COc1ccc(-c2cc3nc(C)c(CCC(=O)NC(C)CCc4ccco4)c(C)n3n2)c(OC)c1 (configuration not stated)
47	Cc1cc(C(=O)Nc2sc3c(c2C(N)=O)CCCC3)on1
48	COc1cc(C)c(NS(=O)(=O)c2cccs2)cc1OC

Screen / compound no.	41	42	43	44	45	46	47	48
Mtb MbtI inh	7	21	.	-10	.	0	97	2
Mtb MenB inh	-3	11	-20	-9	-19	-17	-41	5
PV pol inh	106	105	103	101	83*	100	93	100
PV pol inh intensity	102	101	105	101	86*	101	96	97

49	Cc1cc(NC(=O)/C=C/c2ccco2)n(-c2nc3ccccc3n2Cc2cccc(Oc3ccccc3)c2)n1
50	CCNc1nc(-c2ccc(NC(=O)CC)cc2)cs1
51	Cc1cc(C2CCCCC2)n(O)c(=O)c1
52	COc1ccc(-c2nc(C#N)c(NC3CCCCC3)o2)cc1
53	Cc1ccc(C(=O)Nc2ccccn2)cc1
54	COc1cc(OC)cc(C(=O)n2nc(C)cc2C)c1
55	CCOC(=O)c1cc(-c2ccccc2)n(CC(=O)O)c1C
56	CCOC=C1C(=O)c2ccccc2C1=O

Screen / compound no.	49	50	51	52	53	54	55	56
Mtb MbtI inh	15	2	5&-14	115	.	-15	-1	4
Mtb MenB inh	7	-39	-4&3	-2	-15	-5	-13	-43
PV pol inh	109	122	102&101	99	98	102	102	91
PV pol inh intensity	114	114	99&101	100	101	103	105	96

57	Cc1ccc(C)n1-c1ccc(C(=O)OCC(=O)N2CCCC2)cc1
58	Cc1ccc(NC(=O)/C=C2/SC(=O)N(CN3CCCCC3)C2=O)cc1
59	Cc1cc2nc(Oc3ccccc3)c3ccccc3n2n1
60	CN1CCCc2cc(CN)ccc21
61	C/C(=N\O)C(=O)c1ccc(-c2ccccc2F)cc1
62	C=C1C(C(=O)NCC2CCCO2)C1C(=O)NCC1CCCO1 (configuration not stated)
63	CC(C)C(=O)N1N=C2CCCCC2C1(O)C(F)(F)F (configuration not stated)
64	Cc1c(C(=O)O)nnn1-c1ccccc1

Screen / compound no.	57	58	59	60	61	62	63	64
Mtb MbtI inh	-28	14	5	49	-2	-3	1	5
Mtb MenB inh	-33	-10	11	-35	-15	.	-2	13
PV pol inh	100	94	103	84	101	101	105	101
PV pol inh intensity	101	97	96	111	110	94	100	102

65	CCSc1nc2ccccc2c(=O)n1C1CCCC1
66	Cc1ccc(CNC(=O)c2n[nH]c3c2CCCC3)cc1
67	Cc1ccc(N2C(=O)c3ccc(-c4nc5ccccc5o4)cc3C2=O)cc1C
68	O=C1NC2(CCCCC2)C(=O)N1CN1CCCC1c1ccc2c(c1)OCCCO2 (configuration not stated)
69	O=C(COc1ccccc1)Nc1ncc2c(n1)CCCC2=O
70	CC(C)(CO)NC(=O)C12CC3CC(CC(Cl)(C3)C1)C2
71	CN(C1CCCCC1)S(=O)(=O)N1CCCC(C(=O)NCCCc2ccccc2)C1 (configuration not stated)
72	Cc1c(C(=O)/C=C/N(C)C)nnn1-c1ccc(Cl)cc1C#N

Screen / compound no.	65	66	67	68	69	70	71	72
Mtb MbtI inh	11	-4	-7	-4	-8	-4	-11	17
Mtb MenB inh	-14	-2	-10	-10	-25	.	8	-3
PV pol inh	101	102	103	102	100	99	101	100
PV pol inh intensity	103	102	103	109	105	101	102	104

# Shown bar-delimited: 20 of the compounds above
item | structure | Mtb MbtI inh | Mtb MenB inh | PV pol inh | PV pol inh intensity
1 | CCN(Cc1ccccc1)C(=O)c1cccc(C#N)c1 | -2 | -6 | 103 | 101
2 | Cc1c(Cl)c(O)c(Cl)c(C)c1N(S(=O)(=O)c1ccccc1)S(=O)(=O)c1ccccc1 | 4 | -10 | 104 | 107
3 | COc1cccc(NC(=O)CCSc2nnc3ccc4ccccc4n23)c1 | 54 | -9 | 100 | 101
4 | COC(=O)C1=C(Nc2ccccc2NS(=O)(=O)c2cn(C)cn2)CSC1 | 2 | -6 | 100 | 98
5 | COc1cc(/C=N/NC(=O)c2cc(-c3cccn3C)n[nH]2)cc(OC)c1OC | 2 | -9 | 102 | 104
6 | CCOc1ccc(-c2nc(COC(=O)c3cccc(-n4cnnn4)c3)cs2)cc1OC | -63 | -37 | 105 | 106
7 | Nc1ncnc(N2CCc3ccccc32)n1 | -6 | -10 | 101 | 102
8 | N#CC1C(c2ccccc2F)C(C(N)=O)C(=O)NC1(O)c1ccccc1 (configuration not stated) | -16 | -6 | 101 | 101
9 | Cc1ccc(C)c(OC(=O)CCN2C(=O)C3CC=CCC3C2=O)c1C (configuration not stated) | -10 | -27 | 106 | 109
10 | O=C(c1cnn(C(=O)C2CC2)c1)c1cc(Cl)ccc1O | -6 | . | 98 | 96
11 | CN(Cc1ccccc1)C(=O)c1cc2c(s1)-c1ccccc1OC2 | 32 | -11 | 101 | 103
12 | CC(/C=N/N=C1\SC(CC(=O)Nc2ccc(Cl)cc2)C(=O)N1Cc1ccco1)=C\c1ccccc1 (configuration not stated) | -3 | -9 | 100 | 106
13 | O=C(Nc1n[nH]c(C(F)(F)F)n1)c1ccco1 | -1&-1 | -2 | 102&104 | 106&105
14 | O=C(COc1ccc(Oc2ccccc2)cc1)N1CCN(Cc2ccccc2)CC1 | -4 | . | 101 | 103
15 | O=C(CN1C(=O)c2cccc3cccc1c23)N/N=C/c1ccncc1 | 5 | -14 | 100 | 111
16 | CC1C=CCC2C(=O)N(c3cccc(C(=O)O)c3)C(=O)C12 (configuration not stated) | 1 | 3 | 99 | 100
17 | CCn1c(=O)cc(SCC(=O)NCCN2CCN(Cc3ccccc3)CC2)c2ccccc21 | 15 | 5 | 102 | 99
18 | Cc1ccc(C(=O)Cn2c(=N)sc3cc(C)ccc32)cc1 | -1 | -13 | 100 | 101
19 | Cc1noc(C)c1COC(=O)c1cccc(S(=O)(=O)N(C)C2CCCCC2)c1 | -6 | -30 | 105 | 105
20 | Cn1c(SCC(=O)NCc2ccc(Cl)cc2)nnc1-c1ccc(Cl)cc1 | -7 | . | 102 | 106

# (cont.)
73	COc1cccc(C(=O)NCc2ccc3c(c2)cc(C)n3C)c1
74	C=CCc1cccc(Cl)c1OCCNCc1ccco1
75	COC(=O)c1cc(=O)n(Cc2cccs2)c(=Nc2ccccc2)s1
76	COc1cc(/C=C/C(=O)NC23CC4CC(CC(C4)C2)C3)cc(OC)c1OC
77	Cc1cc(C)c2c(-n3cccc3)c(C(=O)N(C)Cc3ccccc3)sc2n1
78	Cc1c(NC(=O)Nc2ccccn2)sc2nc3n(c(=O)c12)CCC(C)CC3 (configuration not stated)
79	COCC(C)n1c(-c2cccs2)csc1=Nc1cccnc1 (configuration not stated)
80	CCCOC(=O)C1C2C=CC3(CN(CC4CCCO4)C(=O)C13)O2 (configuration not stated)

Screen / compound no.	73	74	75	76	77	78	79	80
Mtb MbtI inh	-3	-26	-11	32	1	-3	32	6
Mtb MenB inh	-36	-9	-51	.	-17	-8	-34	0
PV pol inh	104	103	100	103	103	103	109	100
PV pol inh intensity	106	102	103	97	105	103	112	100

81	O=C1NC(=O)C2C1C(c1ccco1)NN2Cc1ccccc1 (configuration not stated)
82	N#Cc1ccc(COC(=O)c2ccccc2)cc1
83	Cc1ccc(NC(=O)Cn2c(=O)n3nc(C)nc3c3ccccc32)cc1
84	Nc1[nH]c(=O)[nH]c(=O)c1N=Nc1ccc(S(=O)(=O)N2CCOCC2)cc1
85	NC(=O)NS(=O)(=O)c1ccc(N)cc1

Screen / compound no.	81	82	83	84	85
Mtb MbtI inh	10	-16	-4	0	.
Mtb MenB inh	5	-8	-12	-31	1
PV pol inh	100	101	103	100	107
PV pol inh intensity	98	104	97	100	110
